Cruzain inh Det: qHTS Assay for Promiscuous and Specific Inhibitors of Cruzain (with detergent). Cruzipain (Trypanosoma cruzi), P25779. purified cruzain, Z-FR-AMC fluorescence, 0.01% Triton. Potency, µM, for inactives: max response, negative = inhibition, hits mostly inhibitors. 0.43% of 200,000 active;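 also: plate controls were neutral wells for no effect and buffer without enzyme for full effect; nearly all actives have a fitted effect of over 40% in size; top concentration of the series not given in the record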
Target sequence (P25779 123-467 limits assumed): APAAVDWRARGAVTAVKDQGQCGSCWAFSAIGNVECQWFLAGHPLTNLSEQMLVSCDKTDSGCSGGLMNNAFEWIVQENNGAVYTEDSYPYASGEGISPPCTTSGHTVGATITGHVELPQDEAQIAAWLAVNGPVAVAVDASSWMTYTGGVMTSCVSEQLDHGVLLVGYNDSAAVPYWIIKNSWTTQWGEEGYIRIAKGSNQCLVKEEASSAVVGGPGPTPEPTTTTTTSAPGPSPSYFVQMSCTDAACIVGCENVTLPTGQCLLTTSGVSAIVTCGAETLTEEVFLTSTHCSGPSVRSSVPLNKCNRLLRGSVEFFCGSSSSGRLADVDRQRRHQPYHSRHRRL
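Compounds were screened in titration against cruzain (1.5 nM) with 0.01% Triton X-100 to counter colloidal aggregation. Activity was the AMC fluorescence increase over 60 s after adding 2 uM Z-FR-AMC at pH 5.5.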
RE007 growth inh: qHTS Assay for Inhibitors of the HIV-1 protein Vpr; S. pombe RE007 Vpr strain, BacTiter-Glo ATP luminescence, 24 h; control for the full effect not named in the record; Potency, µM (doses to about 92.2 µM), for the others: at the top dose activity change, negative = less growth; 0.21% of 360,000 active; AID 651644, 2012; active = well fitted falling curve with a large enough effect; inconclusive = small, poorly fitted or top-dose-only effect; inactive = no such curve, though single readings can be large or run the other way;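 also: % is scaled to controls: 0 for no effect and ±100 for the full control effect; nearly all actives have a fitted effect of over 50% in size; the assay follows cell death caused by Vpr and the record does not say whether a fall means rescue or toxicity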
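Fission yeast strain RE007, carrying one chromosomally integrated HIV-1 vpr copy, was seeded at OD 0.01 in PMG+AL medium with 23 nL pinned compound. After 24 h at 30 °C and 99% humidity, viability was read by BacTiter-Glo luminescence.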
Marburg entry inh: qHTS for inhibitors of binding or entry into cells for Marburg Virus | Potency, µM (doses to about 37.8 µM), without a hit: top-dose activity change, negative = inhibition, actives largely listed as inhibitors | AID 540276, 2011 | Marburg virus pseudotyped entry inhibition, cell reporter; control for the full effect not named in the record; about a third of the inactives were read at about 46 µM | 1.8% of 300,000 active; active = well fitted inhibition curve with a large enough effect; inconclusive = small, poorly fitted or top-dose-only effect, or effect the other way; inactive = flat fitted curve, though single readings scatter; tested in HEK293 cells; about a fifth of its hits are not listed in these tables; also: % is scaled to controls: 0 for no effect and ±100 for the full control effect; luciferase read-out
StopGo reporter: High Throughput Screening for Foot and Mouth Disease Virus Antivirals; Potency, µM (doses to about 57.9 µM), without a hit: at the top dose signal change, negative = less light; human cells with a luciferase reporter of 2A StopGo recoding; control for the full effect not named in the record; 1.2% of 410,000 active; active = well fitted falling curve with a large enough effect; inconclusive = small, poorly fitted or top-dose-only effect; inactive = no such curve, though single readings can be large or run the other way; tested in HEK293T cells; also: % is scaled to controls: 0 for no effect and ±100 for the full control effect; nearly all actives have a fitted effect of over 45% in size; luciferase light after 4 h
LASV entry inh: qHTS for Inhibitors of binding or entry into cells for Lassa Virus | AID 540256, 2011 | Lassa virus pseudotype entry inhibition, cell reporter; control for the full effect not named in the record | 1.2% of 300,000 active | Potency, µM (titrated, usually from 37.9 µM), for inactives: at the highest dose activity change, negative = inhibition, actives largely listed as inhibitors; active means well fitted inhibition curve with a large enough effect; inconclusive means small, poorly fitted or top-dose-only effect, or effect the other way; inactive means flat fitted curve, though single readings scatter; tested in HEK293 cells; also: % is scaled to controls: 0 for no effect and ±100 for the full control effect; nearly all actives have a fitted effect of over 50% in size; luciferase read-out
SARS PLP yeast: qHTS of Yeast-based Assay for SARS-CoV PLP; S. cerevisiae expressing SARS-CoV PLpro, growth rescue; control for the full effect not named in the record; Potency, µM (top dose mostly 32.9 µM), without a hit: top-dose activity, positive = growth rescue; 0.19% of 330,000 active; active means well fitted rising curve with a large enough effect; inconclusive means small, poorly fitted or top-dose-only effect; inactive means no such curve, though single readings can be large or run the other way; also: 0% is about no effect; nearly all actives have a fitted effect of over 55% in size; growth read by luminescence after 48 h
Cruzain inh noDet: qHTS Assay for Promiscuous and Specific Inhibitors of Cruzain (without detergent); purified cruzain, Z-FR-AMC fluorescence, no detergent; Potency, µM, inactives show max response, negative = inhibition, hits mostly inhibitors; 2.3% of 200,000 active; AID 1476, 2009;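 also: plate controls were enzyme without inhibitor for no effect and buffer without enzyme for full effect; nearly all actives have a fitted effect of over 40% in size; top concentration of the series not given in the record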
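Detergent-free condition (0.00005% Triton X-100) in acetate buffer pH 5.5 with DTT. 1.5 nM enzyme and compound were pre-mixed 15 min, then 2 uM Z-FR-AMC substrate added; reaction progress from fluorescence change between first and third reads (60 s).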
NS1 inh: qHTS Assay for Inhibitors of Influenza NS1 Protein Function. S. cerevisiae slowed by influenza A NS1, growth recovery by OD600. Potency, µM (series often up to 46.1 µM), inactives show at the top dose activity, positive = more growth. 0.4% of 270,000 active; active means well fitted rising curve with a large enough effect; inconclusive means small, poorly fitted or top-dose-only effect; inactive means no such curve, though single readings can be large or run the other way; also: nearly all actives have a fitted effect of over 50% in size
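Growth recovery, yeast-based: influenza A NS1 expressed in S. cerevisiae causes slow growth, and suppressors are detected by OD600. The parent strain without NS1 is used as positive control.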
* marks the source's active call; other numbers are inactive results; u = inconclusive; x = no result given; & = joins results of further samples; [ ] = remark or other dose. Unless noted, calls follow the shape of the dose curve; as a rule, active = well fitted curve in the direction sought with a large enough effect; inconclusive = small, poorly fitted or top-dose-only effect, or another doubt; inactive = no such curve, though single readings can be large; an effect the other way counts as inactive or inconclusive. Potency is read from the fitted curve at half-maximal effect. Outcome played no part in choosing rows, and some 4.7% of all compounds hit somewhere here.

molecule | Cruzain inh Det | RE007 growth inh | Marburg entry inh | StopGo reporter | LASV entry inh | SARS PLP yeast | Cruzain inh noDet | NS1 inh
O=C(Cn1ncc2ccsc2c1=O)N1CCC2(CC1)OCCO2 | 4.7% | 14% | 26% | 0% | 11% | -3% | 0% | 3%
COC(Cc1nnc(SC)n1-c1ccccc1)OC | 4.1% | -12% | -4% | 20% | 4% | 5% | 4% | 8%
O=C(Cn1cc(C(F)(F)F)ccc1=O)Nc1cccc(S(=O)(=O)N2CCOCC2)c1 | -2.3% | 3% | -11% | -13% | 14% | 3% | -10% | 6%
CCN(CC)CCCN(Cc1cc2cc(OC)ccc2[nH]c1=O)C(=O)Nc1ccccc1 | x | -25% | u | -8% | 2% | -1% | x | -2%
COc1ccc(CNC(=O)CC(c2ccc(OC)c(OC)c2)N2Cc3ccccc3C2=O)cc1 (stereo not given) | -1.5% | x | x | 0% | -5%[46.1 µM] | x | 9% | x
Nc1nc(SCc2ccc(Cl)cc2Cl)nc2nc3c(cc12)CCCC3 | 14µM* | -13% | u | -19% | u | 3% | 13µM* | 7%
Cc1cc(C)cc(NC(=O)CSc2nc3c(c(=O)[nH]2)CN(Cc2ccc(F)cc2)CC3)c1 | -4.7%&2.2% | -10% | 17%[46.1 µM] | -16%&-25% | 23%[46.1 µM] | -14% | 11%&8% | 4%
O=C1C=C(NCc2ccc(Cl)c(Cl)c2)C2(CCCCC2)O1 | -0.1% | -8% | -89% | 0% | -16% | -4% | -5% | 3%
C=CCn1c(=O)c(C(=O)NC2CC2)c(O)c2cc(OC)c(OC)cc21 | x | -13% | u | -5% | -4%[46.1 µM] | -4% | x | -6%
CC(C)Cn1c(-c2cccs2)nc2nc3ccccc3nc21 | -26% | -21% | -4% | -21% | -1% | -5% | u | -88%
CCOC(=O)C1CCN(CC(O)COCc2ccc(Cl)cc2)CC1 (stereo not given) | x | -6% | x | -12% | x | 19% | x | -8%
Cc1cc(C)c2c(=O)[nH]c(SCC(=O)Nc3ccc(Br)cc3)nc2n1 | x | 14% | 8%[46.1 µM] | 0% | 9%[46.1 µM] | 2% | x | -6%
Nc1cc(=O)[nH]c(SCC(=O)Nc2ccc(S(=O)(=O)N3CCOCC3)cc2)n1 | -11% | 16% | u | -12% | 1% | -6% | -17% | 23%
Cc1ccc(S(=O)(=O)N2CCCOC2CNC(=O)C(=O)NCc2ccc3c(c2)OCO3)cc1 (stereo not given) | x | 3% | 4% | -19% | 7% | 2% | x | -2%
Cc1cc2c(SCc3ccccc3Cl)nc(N)nc2nc1C | 2.2% | -10% | -33%[46.1 µM] | -14% | 6%[46.1 µM] | x | 1% | -6%
COc1ccccc1N1C(=O)S/C(=C\c2cccs2)C1=O | x | 1% | 2% | 17% | 8% | -1% | x | 1%
Cc1nnc(SCC(=O)NCC2COc3ccccc3O2)s1 (stereo not given) | x | 20% | 2% | 0% | 9% | 4% | x | x
Cc1cc(/C=N/NC(=O)c2cccnc2)c(C)n1CC(C)C | x | 1% | 9%[46.1 µM] | 0% | x | 0% | x | 6%
O=C(Nc1ccc(N2CCN(c3ccc(F)cc3)CC2)c(C(=O)O)c1)c1ccccc1F | 3.0% | x | x | 0% | -1%[46.1 µM] | x | 5% | x
Cc1ccc(S(=O)(=O)N2CCN(C(=O)CCC(=O)Nc3ccc(Br)c(C)c3)CC2)cc1 | x | -17% | u | 0% | -14% | x | x | x
Cc1ccc2c(COC(=O)c3n[nH]c4ccccc34)cc(=O)oc2c1 | -5.4% | 1% | 1% | 35%[activator] | 2% | u | u | -1%
CCOC(=O)C(C)Sc1nnc(CSc2nc3nc(C)cc(C)n3n2)o1 (stereo not given) | -3.0% | x | 11% | -16% | 10% | 2% | 0% | 15%
CC(=O)OC1C2CCC1C(N1CCCC1)CC2 (stereo not given) | -2.3% | -6% | 8% | -15% | 9% | 4% | -8% | 13%
COc1ccc(NC(=O)C(CC(=O)O)Cc2ccc(C)cc2)cc1 (stereo not given) | x | -16% | -8% | 7% | -1% | 0% | x | 5%
Cc1nc(C(Cl)(Cl)Cl)nc2[nH]ccc(=O)c12 | x | 2% | -12%[14.2 µM] | -17% | 3% | 0% | x | 0%
COc1ccc(NC(=S)N2CCC(N(C)CCN3CCOCC3)CC2)cc1Cl | -1.0% | -3% | u | -13% | -6% | 0% | -10% | 7%
COc1ccc(OC)c(/C=N/NC(=O)c2cc3c(OC)cccc3[nH]2)c1 | x | 11% | 10µM* | -27% | 3% | -2% | x | 1%
O=C(N/N=C/c1ccc(OCCCF)cc1)c1cc(OCC(F)(F)F)ccc1OCC(F)(F)F | -0.1% | 11% | -25% | 0% | 2% | 9% | 25µM* | u
CC(C)C(=O)NC(=S)Nc1ccc(S(=O)(=O)Nc2ccccc2)cc1 | -8.9% | x | u | 75%[activator] | 1% | -14% | -17% | -7%
CC1(C)CN(c2ccc(Br)cc2Br)C1=O | x | 3% | -2%[46.1 µM] | 8% | 5% | 2% | x | x
COc1ccc(OC)c(C(=O)COC(=O)c2cc(C)oc2C)c1 | -8.7% | 2% | -12%[46.1 µM] | 9% | -34% | -11% | 1% | -8%
CC(C)(C)NCC(=O)c1c[nH]c2ccccc12 | 3.0% | 8% | 0%&0% | -11% | -3% | -6% | -6% | 5%
Cc1cc(C)n(-c2ncnc3c2oc2ccccc23)n1 | -5.4% | -26% | 16% | 29% | 3% | -2% | 6% | -13%
CN(C)c1ccc(C=Cc2cnccn2)cc1 | x | -12% | u | -10% | u | x | x | x
CCn1c(CCNC(=O)c2ccc(Cl)cc2)n[nH]c1=S | 0.6% | -1% | -1% | 0% | -1% | 6% | 6% | -14%
CC(OC(=O)c1cc(S(=O)(=O)N2CCOCC2)ccc1Br)C(=O)N1CCOCC1 (stereo not given) | x | 12% | -4% | -13% | 0% | 2% | x | x
CCCC1CC(CSc2ncn[nH]2)OC1=O (stereo not given) | -0.4% | -18% | 9% | -12% | -4% | 11% | -1% | 0%
CC1(C)C2CCC1(C)C(OCCNCCOC(=O)Nc1ccccc1)C2 (stereo not given) | x | 22% | x | 0% | x | -1% | x | u
Cc1ccc(C(=O)N2CCCC(CCC(=O)NCc3ccc(F)c(F)c3)C2)cn1 (stereo not given) | x | 0% | x | 23% | x | 2% | x | -13%
COCCNC(=O)c1cc(Br)ccc1Cl | 3.5% | 15% | 9% | -15% | 0% | -3% | -9% | 5%
CCc1ccc(S(=O)(=O)c2nnn3c2nc(Nc2ccc(NC(C)=O)cc2)c2sccc23)cc1 | -2.4% | x | x | 0% | u | x | -2% | x
O=C(/C=C/c1ccc(S(=O)(=O)N2CCOCC2)cc1)NC(=S)Nc1ccc(Cl)cc1Cl | x | 2% | u | u | -29% | 0% | x | 7%
Cc1occc1-c1nnc(SCc2nc3ccccc3c(=O)n2CC#N)n1C | -0.2% | -3% | 8% | 11% | 0% | -2% | -1% | 7%
Nn1c(SCC(=O)Nc2ccc(F)cc2)nnc1-c1ccccn1 | 2.5% | -7% | 3% | -19% | 4% | 0% | -1% | 9%
C=C(C)C1Cc2nc(N)nc(C)c2C1 (stereo not given) | 4.3% | -5% | 5% | -1% | 7% | 10% | 2% | -7%
CC(=O)N1CCC(N(CCN2CCOCC2)C(=S)Nc2cc(C)cc(C)c2)CC1 | x | 10% | 14%[46.1 µM] | -3% | -8%[46.1 µM] | -1% | x | x
CCCc1ccc2oc(C(=O)N3CCC[C@H]3CO)c(C)c2c1 | x | 7% | x | 63%[activator] | x | -2% | x | -36%
CN(c1ccccc1)S(=O)(=O)c1cccc(NC(=O)Cc2ccc(Cl)cc2)c1 | x | 2% | u | u | 8.9µM* | -3% | x | x
COc1ccc(C=O)cc1OC(=O)N1CCOCC1 | x | 2% | 10%[46.1 µM] | -15% | 13%[46.1 µM] | 5% | x | 3%
CCCN1CCN(CC2=C(C(=O)OCC)C(c3cccc(OC)c3OC)NC(=O)N2)CC1 (stereo not given) | 1.0% | x | 3%[46.1 µM] | -10% | 16%[46.1 µM] | x | -5% | x
Cc1cc(O)c(C(C)C)cc1N=Nc1ccccc1C(=O)O | x | -13% | -8%[46.1 µM] | u | 11% | 1% | x | 3%
O=C(N/N=C/c1c(Cl)cccc1Cl)c1cccc(F)c1 | 2.5% | -10% | 3% | 59%[activator] | 7% | u | 0% | -6%
N#CCCN(CCC#N)S(=O)(=O)c1ccc(C(=O)Nc2nc(-c3ccccc3)c(C(=O)c3ccccc3)s2)cc1 | x | -4% | x | -9% | x | 1% | x | 6%
CC(OC(=O)c1cc(Br)ccc1O)C(=O)Nc1ccc(S(=O)(=O)N2CCCC2)cc1 (stereo not given) | x | -2% | u | 20µM* | u | 3% | x | x
CC(Oc1ccc(Br)cc1)C(=O)Nc1ccncc1 (stereo not given) | x | 28% | u | u | -15% | -1% | x | x

Reformatted with two lines to a compound: five of the compounds above.
The line under a structure holds: Cruzain inh Det | RE007 growth inh | Marburg entry inh | StopGo reporter | LASV entry inh | SARS PLP yeast | Cruzain inh noDet | NS1 inh
Nn1c(SCC(=O)Nc2ccc(F)cc2)nnc1-c1ccccn1
 : 2.5% | -7% | 3% | -19% | 4% | 0% | -1% | 9%
C=C(C)C1Cc2nc(N)nc(C)c2C1 (stereo not given)
 : 4.3% | -5% | 5% | -1% | 7% | 10% | 2% | -7%
CC(=O)N1CCC(N(CCN2CCOCC2)C(=S)Nc2cc(C)cc(C)c2)CC1
 : x | 10% | 14%[46.1 µM] | -3% | -8%[46.1 µM] | -1% | x | x
CCCc1ccc2oc(C(=O)N3CCC[C@H]3CO)c(C)c2c1
 : x | 7% | x | 63%[activator] | x | -2% | x | -36%
CN(c1ccccc1)S(=O)(=O)c1cccc(NC(=O)Cc2ccc(Cl)cc2)c1
 : x | 2% | u | u | 8.9µM* | -3% | x | x

Screening data (PubChem)
